From PubChem
Mtb MbtI inh: MbtI salicylate synthase inhibitors, primary screen, biochemical, fluorescence intensity | purified MbtI enzyme, fluorescence intensity read-out | inhibition, %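 (about 17 µg/mL by stock and volumes)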 | 0.89% of 100,000 active | AID 493033, 2011;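 active = above 50% in both replicates, above 80% if mildly self-fluorescent; inactive = the rest, strongly fluorescent compounds included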;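 note: 0% = mean of negative and 100% = mean of positive controls; one replicate is shown; some compounds called inactive have numbers as strong as hits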
Target sequence (P9WFX0 whole entry, looked up): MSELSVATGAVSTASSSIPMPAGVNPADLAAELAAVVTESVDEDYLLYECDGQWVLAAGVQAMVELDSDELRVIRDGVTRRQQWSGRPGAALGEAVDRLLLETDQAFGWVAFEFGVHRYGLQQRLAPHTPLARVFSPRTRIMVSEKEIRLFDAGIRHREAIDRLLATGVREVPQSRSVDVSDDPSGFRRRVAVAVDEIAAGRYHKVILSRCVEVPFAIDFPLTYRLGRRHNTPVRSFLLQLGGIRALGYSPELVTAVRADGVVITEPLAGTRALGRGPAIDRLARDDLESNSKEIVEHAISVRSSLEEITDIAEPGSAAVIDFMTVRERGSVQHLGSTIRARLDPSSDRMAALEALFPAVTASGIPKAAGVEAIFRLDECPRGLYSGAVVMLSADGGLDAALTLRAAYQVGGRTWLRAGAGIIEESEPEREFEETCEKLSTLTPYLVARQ
* hit, by the source's call.

Start of the data: the first 7 entries, ahead of the listing:
SMILES	Mtb MbtI inh
Cc1ccc(NC(=O)C(C)Sc2nc(N)cc(=O)[nH]2)cc1 (centres undefined)	-14.6
CC(CN(C)Cc1ccccc1)OC(=O)c1cccs1 (centres undefined)	-4.7
Cc1ccc(SCc2[nH]nc3c2C(C)C(C#N)=C(N)O3)cc1 (centres undefined)	-4.2
CCCCc1[nH]nc2c1C1(CCN(C)CC1)C(C#N)=C(N)O2	-13.0
COc1nc(NC(C)=O)nc(C)c1Br	-7.6
OC(C#CCN1CCOCC1)c1ccccc1 (centres undefined)	-0.9
Cc1nc2ccc(F)cc2cc1C(=O)O	-10.2

Results, repeating the preview:
SMILES	Mtb MbtI inh
Cc1ccc(NC(=O)C(C)Sc2nc(N)cc(=O)[nH]2)cc1 (centres undefined)	-14.6
CC(CN(C)Cc1ccccc1)OC(=O)c1cccs1 (centres undefined)	-4.7
Cc1ccc(SCc2[nH]nc3c2C(C)C(C#N)=C(N)O3)cc1 (centres undefined)	-4.2
CCCCc1[nH]nc2c1C1(CCN(C)CC1)C(C#N)=C(N)O2	-13.0
COc1nc(NC(C)=O)nc(C)c1Br	-7.6
OC(C#CCN1CCOCC1)c1ccccc1 (centres undefined)	-0.9
Cc1nc2ccc(F)cc2cc1C(=O)O	-10.2
N#Cc1cc2c(nc1SCc1ccccc1Cl)CCCC2=O	-3.3
C(#Cc1ccccc1)CN1CCOCC1	-12.9
COc1ccc(-n2nc3c(c2NC(C)=O)CS(=O)C3)cc1 (centres undefined)	-3.4
COc1ccc(C(NC(=O)C(C)C)c2ccc3cccnc3c2O)cc1OC (centres undefined)	-10.2
Cc1ccc(C(C#N)N2CCOCC2)cc1 (centres undefined)	-0.9
O=C(CSc1nsc(SCC(=O)Nc2ccc(F)cc2)n1)Nc1ccc(F)cc1	0.3
O=C1CCCC2=C1C(c1cc(Br)ccc1O)C1C(=O)c3ccccc3C1=N2 (centres undefined)	4.8
O=C1CCNc2ccc(-c3ccccc3)cc21	36.8
Cc1ccccc1NC(=O)CC(Cc1ccccc1)C1CCOC(C)(C)C1 (centres undefined)	-14.0
Cn1c(CN2CCC(C(N)=O)CC2)c(C#N)c2ccccc21	-6.7
CS(=O)(=O)N1CCCCCC1	-16.1
COC(=O)c1cc(Cl)c(NC(=O)c2ccco2)cc1OC	-3.4
COc1ccc(C(CC(=O)O)c2ccc(OC)c(OC)c2)cc1OC	-6.6
O=c1[nH]nc(SCc2ccccc2)c(=O)[nH]1	0.8
COC(=O)C1(C#N)C(c2ccccc2)C1(C(=O)OC)C(=O)OC (centres undefined)	-8.4
N#CCCS(=O)(=O)c1ccc2[nH]c(=O)c(=O)[nH]c2c1	33.1
CCN(CCCN)Cc1ccccc1	-0.8
O=C(c1ccc(-c2ccccc2)cc1)N1CCOCC1	-10.9
Cc1ccc(-c2ccc(=O)[nH]n2)cc1	-5.7
CCOC(=O)c1ccc(CNC(=O)CSc2nnnn2-c2ccc(Cl)cc2)o1	0.4
CCOC(=O)C(C)Oc1cc2oc(=O)c3c(c2cc1Cl)CCC3 (centres undefined)	-25.9
COc1ccc(OCC(=O)NCc2ccncc2)cc1	-6.4
Cn1cccc1C1=NC(C)(C)CO1	-9.3
COC(=O)c1ccc(CSc2nnc(-c3ccncc3)n2Cc2ccccc2)o1	2.9
CCc1ccc(N(CC)C(=O)c2cn(CC)c(=O)c3cc(OC)c(OC)cc23)cc1	-4.2
O=C(NCc1ccco1)c1ccc2c(c1)C(=O)c1ccccc1-2	-6.1
Cc1nc(C)n(C)c(=O)c1-c1ccccc1	-10.2
Cn1c(=O)c2c(nc(NCCc3ccccc3)n2C)n(C)c1=O	0.7
N#Cc1ccc(/C=C/c2ccc(C#N)cc2)cc1	14.4
Cc1ccc(S(=O)(=O)NCCCn2ccnc2)cc1	-7.9
Cn1c(CNc2ccc(C(=O)O)cc2)nc2ccccc21	5.5
COc1ccc(/C(O)=C2\C(=O)C(=O)OC23C(=O)c2ccccc2C3=O)cc1	8.8
O=C1c2ccccc2C(=O)N1CC(=O)N1c2ccccc2CCc2ccccc21	-19.1
CC(C)(C)C(=O)OCCn1c(=O)c2cc3c(=O)n(CCOC(=O)C(C)(C)C)c(=O)c3cc2c1=O	-4.6
O=C(Nc1ccc(Cl)cc1)c1ccsn1	3.8
CCOC(=O)N1CCN(c2cc(NCCC(=O)O)c3c4c(onc24)-c2ccccc2C3=O)CC1	10.1
CCC1(C(=O)c2ccccc2)C(c2ccc(OC)c(OC)c2)C1(C(=O)OC)C(=O)OC (centres undefined)	-10.4
COc1cccc(CNC(=O)CCSCc2ccccc2F)c1	-14.4
c1cncc(CNC2CCCCC2)c1	-8.4
Cc1ccccc1Cn1c(=O)[nH]c2ccccc21	-10.5
CCc1nc(C)cc(N)c1OCc1ccccc1	-11.8
Cc1c(O)ccc2c(-c3ccccc3)cc(=O)oc12	-3.4
CC1C(=O)CCN(C(C)C)C1C (centres undefined)	-8.8
Cc1cc(NC(=O)CSc2ccccn2)no1	15.2
CCC(C)n1c(=O)[nH]c2c(c1=O)CCC2 (centres undefined)	-9.2
O=C(CCC1CC(=O)Nc2ccccc21)NCCC1=CCCCC1 (centres undefined)	-2.2
O=C(O)C1CCCCC1C(=O)Nc1ccccn1 (centres undefined)	-2.5
O=C(O)c1cc(O)ccc1-c1ccc(O)cc1	-23.1
CN(C)C(=O)c1ccc2c3c(cccc13)CC2	5.2
Cc1ccc(C2C(S(C)(=O)=O)=C(O)C(=O)N2c2ccccc2)cc1 (centres undefined)	-5.1
CCOC1(O)C(=O)c2ccccc2C(=O)C1(O)OCC (centres undefined)	78.6
CCCOc1ccc(S(=O)(=O)n2cc(Br)c(=O)[nH]c2=O)cc1	81.7*
O=C(NC1CCCCC1)c1ccc(CNc2ccccc2)o1	-18.1
(more compounds)
SMILES	Mtb MbtI inh
Clc1ccc(Cl)c(SCCc2ccncc2)c1	3.2
Cc1cccc(CN2C(=O)CSc3ccc(C(=O)NCc4c(F)cc(F)cc4F)cc32)c1	-7.4
c1ccc(-n2nnnc2OCCOc2nnnn2-c2ccccc2)cc1	3.7
COc1ccc(N(C)C(=O)c2cc3c(=O)oc4ccccc4c3s2)cc1	-6.3
CC(=O)N1CSCC1C(=O)O (centres undefined)	-18.6
Cc1ccc2c(c1)NCC(C(=O)NC1CCCCC1)O2 (centres undefined)	-16.1
O=C(Nc1nsc(-c2ccccc2)n1)c1ccc(F)cc1	-0.3
O=c1[nH]c(-c2ccccc2)c(-c2ccccc2)[nH]1	91.2
COCCN1C(=O)c2ccccc2C(C(=O)NCC2COc3ccccc3O2)C1c1ccc(F)cc1 (centres undefined)	-4.3
Nc1nnnn1Cc1ccccc1	-3.8
CC1(C)C2CCC1(C(=O)O)C(=O)C2 (centres undefined)	1.1
C=CCn1c(=N)n(CC(=O)C(C)(C)C)c2ccccc21	-31.8
Cc1ccc(C(C)C)c(OCC(N)=O)c1	-6.2
CC1(C)CC(OC(=O)CC#N)CC(C)(C)N1	0.8
O=C(NC1(c2ccccc2)CC1)c1ccccc1	-8.1
N=c1oc2c(Cl)cc(Cl)cc2cc1C(=O)Nc1ccc(F)cc1	-8.9
CC(C)Cc1ccc(C(C)C(=O)NC(Cc2ccccc2)C(N)=O)cc1 (centres undefined)	-2.2
C=CCn1c(N)c(-c2nc3ccccc3n2C)sc1=S	6.4
Oc1c(Br)cc(CN2CCCCC2)c2cccnc12	-4.2
Cc1c(N2C(=O)c3ccccc3C2=O)c(=O)n(-c2ccccc2)n1C	5.5
CCCC(=O)N1c2ccccc2NC2=C(C(=O)CCC2)C1c1cccs1 (centres undefined)	-0.9
CC(=O)N1CC(C)OC1c1ccccc1 (centres undefined)	-10.7
C=CCNc1nc2c(c(=O)[nH]c(=O)n2C)n1C	-2.6
CCOC(=O)c1cc2c(=O)n3ccccc3nc2n(C(C)C)c1=NC(C)=O	107.6
CC(C)C(NC(=O)C1CCCCC1)C(=O)Nc1ccc2c(c1)OCCO2 (centres undefined)	-17.8
CCC(C)(C(=O)Nc1ccc2c(c1)OCCO2)N(C(C)=O)c1ccc(C(N)=O)cc1 (centres undefined)	-10.4
COc1ccccc1N1CCN(S(=O)(=O)c2ccc(S(N)(=O)=O)cc2)CC1	-1.1
Cc1nc2ccccc2n1CCO	0.2
CCOC(=O)CCCc1c[nH]c2ccccc12	-11.8
CN1CCCc2cc(SC#N)ccc21	45.3
COc1ccccc1N1CCN(C(=O)c2cnc(Nc3ccc(C)c(Cl)c3)c3ccccc23)CC1	109.3
Cc1ccc2c(c1)c1c3n2CCN(CCC#N)C3CCC1 (centres undefined)	2.7
CCOC(=O)c1ccc(NC(=O)CNC(=O)C2CCCCC2)cc1	-3.4
CN(C)CC1Cc2ccccc2O1 (centres undefined)	-11.4
CC1Cn2c(nnc2-c2cccs2)S1 (centres undefined)	-4.5
COc1cccc(OCC(=O)NCC(C)C)c1	-7.2
Cc1ccc(C(O)(CCN2CCCCC2)c2ccccc2)cc1 (centres undefined)	-7.2
COc1ccc(C2CC(=O)C=C(NCC3CCCO3)C2)cc1 (centres undefined)	-0.8
CCN1CCC(=NO)CC1	-7.2
COC(=O)c1cc(-c2ccccc2)on1	5.3
CCC(NCc1cccnc1)c1ccc(OC)c(OC)c1 (centres undefined)	-12.6
Cc1cc(C)nc(Nc2ccccc2O)n1	-12.9
O=C(O)C1NCCc2ccccc21 (centres undefined)	0.1
CCOc1ccc(S(=O)(=O)N2CCN=C2c2ccccc2)cc1	-5.4
COc1ccc2cccc(OC)c2n1	152.8
O=C(CCSCc1ccc(Cl)cc1)NCc1cccnc1	-3.8
COC(=O)c1c(-n2cccc2)sc2c1CCN(C(C)=O)C2	28.4
COc1ccc2nc(-c3cccc(N)c3)[nH]c2c1	98.8

Looked up by structure from the list above, ten records:
SMILES	Mtb MbtI inh
CCC(NCc1cccnc1)c1ccc(OC)c(OC)c1 (centres undefined)	-12.6
Cc1cc(C)nc(Nc2ccccc2O)n1	-12.9
Cc1ccc(C(O)(CCN2CCCCC2)c2ccccc2)cc1 (centres undefined)	-7.2
COC(=O)c1cc(-c2ccccc2)on1	5.3
COc1ccc2cccc(OC)c2n1	152.8
COc1ccc2nc(-c3cccc(N)c3)[nH]c2c1	98.8
CCOc1ccc(S(=O)(=O)N2CCN=C2c2ccccc2)cc1	-5.4
COc1ccc(C2CC(=O)C=C(NCC3CCCO3)C2)cc1 (centres undefined)	-0.8
COC(=O)c1c(-n2cccc2)sc2c1CCN(C(C)=O)C2	28.4
O=C(O)C1NCCc2ccccc21 (centres undefined)	0.1

Further compounds follow:
SMILES	Mtb MbtI inh
O=C(c1cccs1)C1CN2CCC1CC2 (centres undefined)	5.4
CN(Cc1ccccc1)C1CCN(Cc2cccnc2)CC1	-6.2
CCOC(=O)Cc1nn2c(=O)cc(C)nc2s1	8.1
O=C(CNC(=O)c1ccco1)Nc1ccc(Cl)cc1	-7.1
O=C1c2ccccc2C(=O)c2[nH]c(-c3c(F)c(F)c(F)c(F)c3F)nc21	-8.2
O=C(Cc1cccs1)NCc1cccc(Br)c1	-2.0
CCOC(=O)c1sc(C)nc1C1CCN(C(=O)OCC)CC1	5.2
COC(=O)c1cc(S(=O)(=O)CC(c2ccccc2)N2CCCC2)c(Cl)cc1N1CCCC1 (centres undefined)	-6.8
O=C(CN1CCOCC1)OCCCc1ccccc1	-9.7
COC(=O)CN1CCN(C(=O)c2ccc(F)cc2)c2ccccc2C1	-25.0
CCC(C)(O)c1nnn(-c2nonc2N)c1C(C)(O)CC (centres undefined)	-6.3
CCCCn1c(=N)n(CC(O)c2ccccc2)c2ccccc21 (centres undefined)	1.1
O=C(O)C1CCCCC1C(=O)NCCc1ccncc1 (centres undefined)	-13.1
Nc1cc(C(=O)O)c(Oc2ccc(Cl)cc2Cl)cc1C(=O)O	-26.9
CC(C)(C)c1ccc(C2CC(=O)C=C(O)C2)cc1 (centres undefined)	-9.1
CCCCc1nccn1CCn1ccnc1CCCC	-19.9
Cc1nn(CC(=O)O)c2ccccc12	-11.3
c1cnc2c(OCCN3CCCCC3)cccc2c1	-5.7
CCC(C)n1c(=O)[nH]c2c1c(=O)n(C)c(=O)n2C (centres undefined)	-3.8
O=C(OCCN1CCCCC1)c1ccc(Br)cc1	-1.0
COc1cc(-c2ccccc2)nc(N)n1	-7.6
CCN1CCC2(CC1)NC(CO)(CO)CO2	3.6
Cc1ccccc1OCC(O)Cn1ccnc1C (centres undefined)	-9.4
COc1cc(N)c(/C(N)=N/O)cc1OC	5.5
CNC(=S)N1CCc2cc(OC)c(OC)cc2C1COc1ccc(OC)cc1 (centres undefined)	-8.1
Cc1ccc(C(CC#N)C2CCOC(C)(C)C2)cc1 (centres undefined)	-7.7
CC(C)Oc1ccc(Cl)nn1	-18.4
O=C(CCSc1ccccc1)NCc1cccnc1	0.9
Nc1c(-c2ccccc2)c(-c2ccccc2)nn1Cc1ccccc1	-13.4
FC(F)(F)c1cc(-c2ccccc2)nc(N2CCCC2)n1	-6.7
O=C(Nc1ccc(O)cc1C(=O)O)c1ccc2c(c1)C(=O)N(CC1CCCO1)C2=O (centres undefined)	-5.5
COc1cc(OC)cc(C(=O)NC2CCCCCCC2)c1	-7.4
Cc1cc(-n2cc(Br)c(=O)[nH]c2=O)nc(-c2ccccc2)n1	-10.0
CC1CCCCN1S(=O)(=O)c1ccc2c(c1)oc(=O)n2CC(=O)O (centres undefined)	-8.2
COc1ccc2c(c1)Sc1ccccc1N2CCN(C)C	-13.8
COc1ccc(C2CC(=O)N2C(C(=O)Nc2c(C)cccc2C)c2ccc3c(c2)OCO3)cc1OC (centres undefined)	-11.7
CCOC(=O)c1ccc(COC(=O)CCc2nc3ccccc3[nH]c2=O)cc1	-21.4
COc1cc2c(cc1OC)-c1nnc(C)n1C1(CCCC1)C2	6.8
Nc1nc(-c2ccc(N3CCOCC3)c(F)c2)cs1	-8.3
O=C(Nc1ccccc1C(=O)N1CCc2ccccc2C1)c1ccccc1	-11.7
COc1ccccc1C(=O)Nc1cccc2nsnc12	-18.5
CCc1noc(N)c1C(=O)Nc1ccc(C)c(Cl)c1	4.4
NC(=O)c1cc(-c2ccc(COc3ccccc3)cc2)nc2ccccc12	-59.1
CCN1c2cccc3cccc(c23)S1(=O)=O	-18.0
Nc1cccc(-c2nc3ccc(C(=O)c4ccccc4)cc3[nH]2)c1	-5.1
CCc1c(C)nn2c1n1nc(C)c(CC)c1n1nc(C)c(CC)c21	1.8

This is a subset, so the mix of outcomes need not match the whole.
